Screening results as filed in PubChem.
BJeLR lethal – MLPCN primary cell-based screen for lethality selective to Ras in HRASV12 cells | BJeLR (HRASV12) viability, CellTiter-Glo ATP luminescence, 48 h; reference of the scale not given here | inhibition, % (test concentration not listed) | 0.17% of 300,000 active | AID 1554, 2009;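 active = replicate mean above 50%; inconclusive = above 50% but judged a plate artefact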;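 also: 50 nL library stock added to about 25 µL; numbers are from one replicate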
Bead autofluor – compound fluorescence in toxin protease inhibitor counterscreen | AID 624483 | fluorescence intensity (concentration not given with the values) | compound autofluorescence counterscreen, microsphere flow cytometry; active compounds read high | 3.1% of 360,000 active;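 active = at least 3 SD above the mean of all compounds, about 16000 in these data; inconclusive = too few beads counted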;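 also: 100 nL of 1 mM stock went into each well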
Mtb hypoxia rep – PubChem AID 1159583 | M. tuberculosis hypoxia-regulated fluorescent reporter, fluorescence | fluorescence inhibition, % (test concentration not listed) | 0.1% of 300,000 active;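 active = 35 to 45% if threefold the growth effect, above 45% if 1.5-fold the growth effect; inactive = the rest, general growth blockers included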;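 also: wells of about 50 µL received 100 nL stock; 0% = vehicle wells and 100% = reference inhibitor wells; whole bacteria with a GFP reporter of the hypoxia response; strong numbers were not always called active; many hits fall short of the cut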
RN4220 kill – growth inhibition of S. aureus RN4220, primary screen, OD600; 16 h; inhibition, % (no concentration beside the values); 0.33% of 330,000 active;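 active = z-score of -3 or lower and OD600 up to 0.18 on both plates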;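 also: plate controls were untreated cells for no effect and reference antibiotic for full effect; stock transfer was 100 nL into about 80 µL; one replicate is shown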
ugtP null kill – growth inhibition of ugtP-null S. aureus, primary screen, RN4220 ugtP deletion, OD600. 0.54% of 330,000 active. growth inhibition, % (concentration not given with the values). 16 h; some inactives read as strong as hits. AID 1259309, 2017;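 active = z-score under -3 and OD600 up to 0.15 on both plates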;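 also: plate controls were untreated wells for no effect and antibiotic for full effect; wells of about 80 µL received 100 nL stock; the first replicate is given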
PrP UTR inh – inhibition of PrP 5' UTR reporter expression; cell-based PrP 5' UTR mRNA reporter, plate reader; inhibition, % (concentration not given with the values); 0.35% of 340,000 active; AID 488862, 2010;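 active = every replicate at 50% or more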;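 also: 0 = median of the neutral control wells; tested in H4 reporter cells; numbers are from one replicate; inactives centre near -14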
Mtb hypoxia rep growth – also measured in Mtb hypoxia rep; calls as there; growth inhibition, %; measured here: M. tuberculosis growth (absorbance);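 0% = vehicle and 100% = reference antibiotic; read after six days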
* = called active by the depositor; u = inconclusive; x = no result given; & = joins results of further samples. Rows were taken by chance; overall some 4% were active at least once.

cpd	molecule	BJeLR lethal	Bead autofluor	Mtb hypoxia rep	Mtb hypoxia rep growth	RN4220 kill	ugtP null kill	PrP UTR inh
1	O=C(CCNS(=O)(=O)c1ccccc1)OCc1nnc(-c2ccccc2)o1	-2	5334	-4	7	-0.5	-1	-35
2	N=C1C(c2ccccc2)=C(O)CN1c1ccccc1N1CCOCC1	16	u	7	5	1.2	-2	-2
3	CCOc1ccc(CN(C)C(=O)c2ccc(=O)[nH]c2)cc1	-1	5661	0	4	1.0	6	-20
4	O=c1c2ccccc2n(CC(O)CN2CCCCC2)c2ccccc12 (centres undefined)	-11	4376	5	5	-1.7	1	-36
5	COc1ccc(CN(C)C(=O)C2CSC3(C)CCC(=O)N23)cc1 (centres undefined)	-2	4933	8	1	5.5	4	-18
6	Nc1cncc(C(=O)O)c1	-14&-4	3543&3654	-2&-3	1&4	3.0&-2.3	3&3	52&-24
7	O=C(NN=Cc1ccc2nccnc2c1)c1ccc(Br)cc1	x	x	-2	-1	3.5	3	x
8	COc1ccc(C(=O)Nc2ccc3c(c2)C(=O)N(C)C3=O)cc1OC	8	3996	2	-2	1.9	2	-18
9	CSc1snc(SCC(N)=O)c1C#N	-3	4051	x	x	-1.0	-4	-20
10	CCCC(=O)Nc1cc(OC)c(OC)cc1C(=O)O	-7	4230	x	x	2.5	6	7
11	CC1(C)Cc2nc(NCCCO)c(C#N)cc2CO1	-3	2765	-5	8	-2.5	-6	-4
12	CC(=O)c1nn(-c2ccc(Cl)cc2)cc1C(=O)c1ccccc1	-11	3752	-1	4	1.7	3	-8
13	COc1ccc(-c2noc(C3CCCN(C(=O)c4c(F)cccc4F)C3)n2)cc1OC (centres undefined)	-5	3255	7	0	3.2	10	-3
14	Cc1cc(C=O)c(C)n1-c1sc2c(c1C(=O)O)CCCC2	-1	2203	0	3	2.1	-2	-11
15	CCCCCC(=O)NC(=S)Nc1cccc(-c2nc3ncccc3o2)c1	-22	4445	-1	5	4.5	41	x
16	O=C(CN(C(=O)c1csnn1)c1cccc(C(F)(F)F)c1)NCCc1ccccc1	-2	6098	21	11	1.5	-13	-2
17	CC(NC(=O)CN1C(=O)NC2(CCCC2)C1=O)c1ccc2ccccc2c1 (centres undefined)	x	6339	-1	1	-2.0	1	-19
18	CNC(=O)c1sc(N2N=C3/C(=C/c4ccccc4)CCCC3C2c2ccccc2)nc1C (centres undefined)	1	11573	-2	-3	-5.0	-19	x
19	Cc1ccc(N2CCN(S(=O)(=O)c3ccc(F)c(C)c3)CC2)c(C)c1	-6	4258	x	x	2.1	50	-13
20	COC(=O)c1ccc(S(=O)(=O)N2CCCN(Cc3ccccc3)CC2)n1C	8	4310	14	1	3.7	2	-11
21	COc1ccc(S(=O)(=O)N2CCCCCC2)cc1C(=O)N1CCN(c2ccccc2C)CC1	x	3470	12	2	-0.7	-2	-38
22	Cc1ccc(OCCCCCN2CCOCC2)cc1	6	3526	17	10	-0.8	13	-42
23	COc1ccc(OC)c(CNC(=O)C2CCN(S(=O)(=O)N3CCC(C)CC3)CC2)c1	8	5583	-6	-2	3.9	8	-40
24	COc1cccc2cc(-c3cn4cccc(C)c4n3)c(=O)oc12	-2	4423	19	3	8.6	9	-87
25	CCCCOc1ccc(C(=O)OC2CC(C)N(C)CC2C)cc1 (centres undefined)	7	2567	15	5	4.6	98*	1
26	O=C(O)CCc1ccc(-c2cccs2)n1CC1CCCO1 (centres undefined)	2	4325	7	5	6.3	6	-15
27	COc1ccc(C(=O)Nc2ccc(N3CCCC3)cc2)cc1Br	-14	4449	2	8	1.6	5	-28
28	CSc1c[n+]2c(n1C)CCC2	6	13281	12	6	3.3	-1	-4
29	O=C(COC(=O)c1ccc[nH]c1=O)NCCCc1ccccc1	x	5166	7	0	1.9	8	-18
30	O=C(Nc1cnc2ccccn2c1=O)c1ccc(Cl)cc1Cl	6	4086	1	-5	0.1	-1	44
31	CC1CCN(S(=O)(=O)N2CCC(C(=O)NCc3ccc4c(c3)OCO4)CC2)CC1	-9	8775	-4	-3	1.0	15	-35
32	O=C(COC(=O)c1ccc2c(c1)OCO2)NC1CCCCC1	x	3793	7	8	1.6	4	-18
33	COc1ccc(C(CNC(=O)C(CCSC)NC(=O)c2ccccc2OC)N2CCCCC2)cc1 (centres undefined)	5	10449	-4	9	-0.8	-5	-15
34	Cc1onc(-c2ccccc2)c1C(=O)NNC(=S)NC(=O)/C=C/c1cccs1	7	7647	x	x	x	x	-37
35	CC(=O)N1CCc2cc(S(=O)(=O)NC(C(=O)N3CCN(c4ccccc4F)CC3)C(C)C)ccc21 (centres undefined)	9	6365	x	x	5.9	-6	-24
36	COc1ccc(C=NNC(=O)c2cc(O)c(O)c(O)c2)cc1Cn1cc([N+](=O)[O-])cn1	x	x	13	5	16	-5	x
37	O=C(Nc1ccncc1)c1cccc2ccccc12	-13	4812	7	1	2.3	-2	-19
38	CC1CN(CC(=O)NCc2ccc(F)cc2)CC(C)O1 (centres undefined)	5	4029	2	-1	2.2	0	-9
39	CC(=O)N1c2ccc(S(=O)(=O)N(C)CC(=O)NC3CCCCC3C)cc2CC1C (centres undefined)	-1	5869	-3	12	0.2	-1	8
40	CN(Cc1ccccc1)c1cc(Cl)nc(N)n1	-1	4145	15	3	-2.8	12	-2
41	CCOC(=O)N1CCN(CC(=O)N2c3ccccc3Sc3ccccc32)CC1	-14	3824	6	8	1.0	11	-6
42	CC1(c2ccccc2)NC(=O)N(CC(=O)Nc2ccccc2N2CCCC2)C1=O (centres undefined)	1	u	-2	-13	-0.7	-3	-11
43	Cc1ccc(-n2c(C)cc(C(=O)COC(=O)c3c(C)noc3C)c2C)cc1	12	23721*	2	4	-12	-14	-82
44	O=C(CN(c1ccc(F)cc1)S(=O)(=O)c1ccc2c(c1)OCCO2)N1CCOCC1	6	5038	0	2	3.3	11	-9
45	Cc1ccc(C(=O)NCC(=O)N2CCc3ccccc3C2)cc1C	-4	3953	10	-2	0.3	7	-10
46	O=C(COC(=O)Cc1c[nH]c2ccccc12)Nc1ccccc1	7	2511	9	3	3.6	2	-23
47	COc1ccc(NCc2nnc(SCc3ccc(Cl)cc3)n2-c2ccccc2)cc1	5	2321	-1	-3	1.9	-15	-22
48	COc1cc(C(=O)NCCc2ccc(S(N)(=O)=O)cc2)ccc1OCc1c(C)noc1C	x	3536	2	9	0.4	-5	1
49	Cc1ccc(S(=O)(=O)N(C)C)cc1NC(=O)C(C)NC(C)c1cccs1 (centres undefined)	0	4480	12	2	0.1	-2	-5
50	O=C(CSc1nc2c(c(=O)[nH]1)CCC2)Nc1cccc(Cl)c1	2	3332	2	16	0.6	-13	-5

The list goes on:
cpd	molecule	BJeLR lethal	Bead autofluor	Mtb hypoxia rep	Mtb hypoxia rep growth	RN4220 kill	ugtP null kill	PrP UTR inh
51	Cc1nc(-c2ccc(NC(=O)c3cccs3)cc2)cs1	18	3475	x	x	-4.5	-7	-37
52	Fc1ccc(/C=N/NC(=S)Nc2ccc(Cl)cc2)cc1F	2	2118	x	x	x	x	-36
53	CC(=O)n1c2c(c3ccccc31)OC(N)=C(C#N)C2c1ccc(C(C)C)cc1 (centres undefined)	-8	8046	6	15	6.1	-2	-31
54	Cc1cc(/C(=N/O)C(C)(C)NO)ccc1Cl	5	22038*	x	x	x	x	8
55	COc1cccc(NC(=O)CN(C)C(=O)c2cc(S(=O)(=O)N3CCCCC3)ccc2Cl)c1	-2	u	2	5	1.9	5	-9
56	CCCNC(=O)c1ccc2c(=O)n3c(-c4ccc(C)cc4)csc3nc2c1	11	4364	7	8	1.8	-2	-16
57	Nc1cc(OC(=O)c2c(F)cccc2Cl)nn1S(=O)(=O)c1ccccc1	-12	4727	-7	-7	3.9	4	2
58	CC1(C)CC(=O)C(C2C3=C(CC(C)(C)CC3=O)Oc3ccccc32)C(=O)C1 (centres undefined)	-8	4415	-3	17	-0.8	-1	-10
59	S=c1[nH]nc(COc2ccccc2)n1N=C/C(Cl)=C/c1ccccc1	x	x	2	9	15	-4	x
60	Cc1cc2nc(-c3ccccn3)c(-c3ccccn3)nc2cc1C	17	3456	x	x	x	x	-29
61	Cc1ccc(S(=O)(=O)N=C(c2ccc(F)cc2)N(C)C)cc1	x	x	-2	-12	4.9	16	x
62	Cc1ccc(S(=O)(=O)NNC(=O)Nc2ccc(Cl)cc2)cc1	-2	8992	-1	-3	1.4	10	-11
63	COc1ccc(-c2oc3c4c(cc(OC)c3c(=O)c2CC=C(C)C)OC(C)(C)C=C4)c(OC)c1	-4	x	x	x	-2.3	7	x
64	Cc1ccc(NC(=O)CSc2n[nH]c(N)n2)cc1S(=O)(=O)N1CCOCC1	-11	4403	-5	4	0.2	0	-10
65	O=C(NCCc1ccc(Cl)cc1Cl)c1cc([N+](=O)[O-])c[nH]c1=O	1	5723	11	-3	47	32	-20
66	COc1ccc(C)cc1-n1nnnc1SCC1CCCO1 (centres undefined)	-1	2364	x	x	-4.1	7	-15
67	COc1cc(OC)cc(C(=O)NC(C(=O)Nc2ccc3c(c2)CCC3)C(C)C)c1 (centres undefined)	x	8348	1	9	1.2	-3	10
68	CC1CCN(C(=O)COC(=O)C23CC4CC(CC(O)(C4)C2)C3)CC1	x	4316	2	-2	0.7	4	-38
69	CCc1ccccc1N1CCN(S(=O)(=O)c2ccc(F)c(C)c2)CC1	-1	4135	8	9	-3.1	5	-23
70	COCCN(C(=O)c1ccccc1OC)c1nnc(C)s1	-7	3396	7	-3	1.5	3	11
71	CCN1C(=O)S/C(=C/c2ccc(Sc3nc4ccccc4[nH]3)o2)C1=O	7	2561	6	6	-8.7	-6	-7
72	CNc1c(N)c(=O)oc2ccccc12	7	4344	9	6	5.3	-5	1
73	O=C(COC(=O)c1n[nH]c2ccccc12)Nc1ccccc1F	x	3744	8	1	3.9	-11	-81
74	Cc1onc(-c2ccccc2)c1C(=O)NN=C/C(Br)=C/c1ccccc1	x	x	7	1	7.9	-7	x
75	Cc1ccc(OCC(=O)NNC(=O)C2CSC3(C)CCC(=O)N23)cc1 (centres undefined)	1	x	-10	-1	2.9	2	-7

Among those listed so far, three have bromine.
cpd	molecule	BJeLR lethal	Bead autofluor	Mtb hypoxia rep	Mtb hypoxia rep growth	RN4220 kill	ugtP null kill	PrP UTR inh
7	O=C(NN=Cc1ccc2nccnc2c1)c1ccc(Br)cc1	x	x	-2	-1	3.5	3	x
27	COc1ccc(C(=O)Nc2ccc(N3CCCC3)cc2)cc1Br	-14	4449	2	8	1.6	5	-28
74	Cc1onc(-c2ccccc2)c1C(=O)NN=C/C(Br)=C/c1ccccc1	x	x	7	1	7.9	-7	x

Continuation:
cpd	molecule	BJeLR lethal	Bead autofluor	Mtb hypoxia rep	Mtb hypoxia rep growth	RN4220 kill	ugtP null kill	PrP UTR inh
76	CC(C)CCN(C(=O)c1csnn1)C(C(=O)NC1CCCC1)c1ccc(F)cc1 (centres undefined)	-7	3226	4	-3	3.1	-1	-18
77	CC(C)NC(=O)Cn1nnc(-c2cccc(NC(=O)c3ccccc3F)c2)n1	-3	3119	x	x	2.0	-5	-15
78	O=C(O)C1CCCCC1C(=O)NCCCn1ccnc1 (centres undefined)	-11	11201	1	0	-0.7	3	-24
79	CCOC(=O)C1CCN(c2c(N3CCCCCC3)c(=O)c2=O)CC1	-3	4630	-1	-1	2.1	7	-16
80	COc1cc(/C=N/Nc2nc3ccccc3o2)cc(OC)c1O	-9	u	x	x	x	x	-13
81	O=C(CN(c1ccccc1Cl)S(=O)(=O)c1ccccc1)N/N=C/c1ccccc1C(=O)O	3	3321	x	x	x	x	-1
82	CCNC(=O)CNC(=O)c1nn(Cc2ccccc2)c(=O)c2ccccc12	-12	3636	2	-5	-0.3	8	-25
83	COc1cccc(C(C)=NNC(=O)Cc2c(C)[nH][nH]c2=O)c1	x	x	5	6	0.9	-1	x
84	O=S(=O)(c1ccc(Cl)cc1)N1CCC(c2nc3ccccc3[nH]2)CC1	5	5210	-3	-6	5.3	5	-4
85	Cc1cc(OCC(=O)Nc2ccccn2)c2c(C)cc(=O)oc2c1	7	6161	9	2	4.2	2	-15

Reformatted: results already given
48. COc1cc(C(=O)NCCc2ccc(S(N)(=O)=O)cc2)ccc1OCc1c(C)noc1C
  BJeLR lethal = x; Bead autofluor = 3536; Mtb hypoxia rep = 2; Mtb hypoxia rep growth = 9; RN4220 kill = 0.4; ugtP null kill = -5; PrP UTR inh = 1

49. Cc1ccc(S(=O)(=O)N(C)C)cc1NC(=O)C(C)NC(C)c1cccs1 (centres undefined)
  BJeLR lethal = 0; Bead autofluor = 4480; Mtb hypoxia rep = 12; Mtb hypoxia rep growth = 2; RN4220 kill = 0.1; ugtP null kill = -2; PrP UTR inh = -5
